CtBP-E1A inh: inhibitors of CtBP/E1A interaction; AlphaScreen GST-E1A/His-CtBP binding, 1536-well; active compounds read low; control for the full effect not named in the record; activity change, % (no concentration beside the values); actives 0.49% (n = 340,000); AID 651724; in the data active means activity change below about -65%; inconclusive means about -30% to -65%; inactive means above about -30%; also: % is scaled to controls: 0 for no effect and ±100 for the full control effect
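Protein mix (5X: 125 nM each GST-E1A, His-CtBP) was incubated with pinned compound 2 h at 37 deg C in dark, in 50 mM Tris pH 8.0 buffer with 300 mM NaCl. Glutathione donor and nickel acceptor beads followed; AlphaScreen signal read after 1 h.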
PINK1 modulator: PINK1 expression modulation; PINK1 immunofluorescence, high-content cytometry, 24 h; Potency, µM (titrated, usually from 76.6 µM), inactives show top-dose activation (PINK1 increase), hits mostly activators; actives 0.2% (n = 410,000); active = well fitted activation curve with a large enough effect; inconclusive = small, poorly fitted or top-dose-only effect; inactive = flat fitted curve, though single readings scatter; cell line not stated here;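 also: potency is read from the fitted curve at half-maximal effect; % of control where 0% means no effect; nearly all actives have a fitted effect of over 65% in size; a mitochondrial uncoupler was the plate control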
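A stable cell line was treated with compounds at 5 concentrations for 24 hours, with CCCP as control. PINK1 levels and mitochondrial localization were measured by immunofluorescence with mitochondrial, cell and nuclear markers after fixation, read by laser-scanning cytometry.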
TRPML1 agonist: activates the human TRPML1 channel. Q9GZU1. TRPML1-expressing cells, Ca2+ dye fluorescence, FDSS; host cell line not named in the record; reference of the full effect not given here. activation, % (concentration not given with the values). actives 0.12% (n = 410,000); in the data active = activation above about 50%; inconclusive = about 30% to 50%; inactive = below about 30%; also: 0% is about no effect; the text of the record puts the active cut at 80%
Target sequence (Q9GZU1 whole entry, looked up): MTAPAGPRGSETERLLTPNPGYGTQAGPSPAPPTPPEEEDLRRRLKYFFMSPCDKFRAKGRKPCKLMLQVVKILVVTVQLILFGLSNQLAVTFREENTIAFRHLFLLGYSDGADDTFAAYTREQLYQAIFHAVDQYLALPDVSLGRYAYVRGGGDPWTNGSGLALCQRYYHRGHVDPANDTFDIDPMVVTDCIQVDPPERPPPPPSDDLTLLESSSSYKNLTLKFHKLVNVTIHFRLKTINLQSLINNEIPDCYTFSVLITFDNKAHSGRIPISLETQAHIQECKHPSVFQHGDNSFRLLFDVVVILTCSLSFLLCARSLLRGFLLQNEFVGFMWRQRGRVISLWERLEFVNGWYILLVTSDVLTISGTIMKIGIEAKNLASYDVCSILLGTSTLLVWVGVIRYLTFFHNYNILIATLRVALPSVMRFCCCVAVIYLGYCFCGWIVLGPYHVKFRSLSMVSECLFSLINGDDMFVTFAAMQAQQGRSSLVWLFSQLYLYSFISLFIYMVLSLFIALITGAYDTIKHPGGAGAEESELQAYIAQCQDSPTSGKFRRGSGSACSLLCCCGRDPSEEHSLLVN
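Agonist activity was taken from a 110 s kinetic Ca2+ dye read on the FDSS after pinning compounds onto TRPML1-DL cells. The cells were seeded at 1,500/well with Tet inducer, incubated about 16 h, then dye-loaded at room temperature.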
D2 PAM: human D2 receptor positive allosteric modulation; AID 624464; potentiation, % (no concentration beside the values); actives 0.23% (n = 360,000); DiscoveRx D2 beta-arrestin cells, luminescence, 90 min; 100% = 57 uM dopamine signal; active = potentiation of 50% or more; inconclusive = 30% to 50%; inactive = 30% or less;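 also: compound concentration not given in the record; tested on top of an EC20 dose of dopamine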
Target sequence (P14416 whole entry, looked up): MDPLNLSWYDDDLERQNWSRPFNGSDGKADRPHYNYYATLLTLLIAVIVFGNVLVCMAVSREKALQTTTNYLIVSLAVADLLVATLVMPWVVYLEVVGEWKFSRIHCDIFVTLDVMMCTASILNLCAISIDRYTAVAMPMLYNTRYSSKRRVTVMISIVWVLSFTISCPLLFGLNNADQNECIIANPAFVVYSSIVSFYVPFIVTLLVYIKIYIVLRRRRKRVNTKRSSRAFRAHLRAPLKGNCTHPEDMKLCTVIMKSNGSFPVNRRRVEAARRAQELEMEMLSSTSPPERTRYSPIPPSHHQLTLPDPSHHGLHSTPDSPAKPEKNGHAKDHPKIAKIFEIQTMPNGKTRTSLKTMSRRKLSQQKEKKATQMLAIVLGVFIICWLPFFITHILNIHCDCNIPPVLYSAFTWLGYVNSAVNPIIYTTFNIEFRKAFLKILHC
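D2 cells co-treated with compound plus 50 nM dopamine (EC20) for 90 min at 37 deg C to detect potentiation. Beta-arrestin recruitment was read as enzyme-fragment luminescence after 1 h at ambient temperature. Full response was set by 57 uM dopamine.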
D2 ag: human D2 receptor agonism in beta-arrestin assay | activation, % (no concentration beside the values) | actives 0.084% (n = 360,000) | DiscoveRx PathHunter D2 beta-arrestin, luminescence, 90 min; 100% = 57 uM dopamine signal | P14416; in the data active = activation above about 40%; inconclusive = about 15% to 40%; inactive = below about 15%; also: compound concentration not given in the record; the text of the record calls up to 30% inactive
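Agonist mode: compounds alone added to overnight-plated D2 PathHunter cells for 90 min at 37 C, with 57 uM final dopamine (EC100) defining full response. Beta-arrestin recruitment detected by chemiluminescent reagent, read after 1 h at ambient temperature.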
Six1-Eya2 blk: inhibitors of human Six1/Eya2 interaction. AlphaScreen GST-Six1/His-Eya2 binding, biochemical; active compounds read low; control for the full effect not named in the record. activity change, % (test concentration not listed). actives 0.56% (n = 360,000). Q15475+O00167; in the data active = activity change below about -65%; inconclusive = about -30% to -65%; inactive = above about -30%; also: % is scaled to controls: 0 for no effect and ±100 for the full control effect
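Compounds are tested against tagged Six1 and Eya2 proteins bridged by glutathione donor and nickel acceptor beads; after a one-hour incubation at 37 °C without light, AlphaScreen emission is recorded.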
* marks the source's active call; other numbers are inactive results; ? = inconclusive; nt = no result given; [ ] = dose if it differs, or a comment.

(1) Cc1ccc(-c2ccc(=O)n(CC(=O)Nc3ccc4c(c3)OCCO4)n2)cc1
(2) CN(c1ccc(O)cc1)c1nc(O)c(C2=c3ccccc3=NC2=O)s1
(3) Cc1c(C=O)c2ccccn2c1C(=O)c1ccc(Cl)c([N+](=O)[O-])c1
(4) O=C(CSc1nnnn1Cc1ccccc1)c1ccccc1
(5) Cc1onc(-c2ccccc2)c1C(=O)NC1CCC(C)CC1 (stereo unspecified)
(6) Cc1ccc(-n2c(C)cc(/C=c3/sc4nc5ccccc5n4c3=O)c2C)cc1
compound no.	1	2	3	4	5	6
D2 PAM	-5	-20	-7	-10	1	-10
Six1-Eya2 blk	-2	-17	2	13	3	-2
TRPML1 agonist	0.7	-0.8	-0.2	-0.7	-0.6	2.3
CtBP-E1A inh	-5	nt	-15	2	1	3
D2 ag	-7.4	-5.3	-3.4	-2.1	-5.8	-3.4
PINK1 modulator	1.6%	1.0%	0.1%	-1.2%	-0.6%	10%

(7) CCOC(=O)c1c(NC(=O)C2C3CCC(O3)C2C(=O)O)sc(C)c1-c1ccc(F)cc1 (stereo unspecified)
(8) Cc1oc(-c2ccc(Cl)cc2)nc1CN1CCC(C(=O)NCc2cccnc2)CC1
(9) CCC(Sc1nc2ccccc2o1)C(=O)Nc1nnc(C)s1 (stereo unspecified)
(10) O=C(c1cc(COc2ccc3ncccc3c2)on1)N1CCCC(O)C1 (stereo unspecified)
(11) O=c1c(OCc2ccccc2)cccn1Cc1ccccc1
(12) C=CC[C@]12C[C@@H](OC)C(=O)C=C1O[C@@H](c1ccc(OC)c(OC)c1)[C@H]2C
compound no.	7	8	9	10	11	12
D2 PAM	1	-13	1	2	-9	-5
Six1-Eya2 blk	-5	-2	3	1	-3	2
TRPML1 agonist	6.3	0.2	-0.2	0.4	-0.5	nt
CtBP-E1A inh	0	-12	-6	0	-1	10
D2 ag	-2.8	-1.4	-9.6	9.7	-8.3	-1.0
PINK1 modulator	1.0%	-2.3%	1.2%	-1.2%	0.9%	-0.4%

(13) CC(/C=C/c1ccccc1)=N/NC(=O)CNC(=O)c1ccccc1F
(14) O=P(Cc1ccccc1)(Cc1ccccc1)c1ccccc1
(15) CCOc1cc2c(cc1OCC)CN(CC(=O)Nc1ccccc1C(=O)NC1CC1)CC2
(16) N#CNC(=Nc1cccc(F)c1)SCc1cccc(F)c1
(17) CC1=C(C(=O)Nc2ccccc2)C(c2ccco2)C(C#N)=C(SCC(N)=O)N1 (stereo unspecified)
(18) CC(=O)N1CCN(S(=O)(=O)c2cccc(C(=O)OCC(=O)N(CCC#N)c3ccc(F)cc3)c2)CC1
compound no.	13	14	15	16	17	18
D2 PAM	-3	-9	-1	-8	-17	-4
Six1-Eya2 blk	4	16	2	1	-1	8
TRPML1 agonist	2.8	1.3	1.1	0.2	-0.4	0.1
CtBP-E1A inh	15	0	0	-10	8	nt
D2 ag	-1.0	-1.1	-3.2	-2.1	-1.7	-2.9
PINK1 modulator	7.5%	-4.1%	0.5%	5.8%	nt	1.8%

(19) O=C(Nc1ccc(NS(=O)(=O)c2ccccc2)c(Cl)c1)c1ccccc1
(20) COC(=O)c1cc(S(=O)(=O)N2CCN(c3ccc(OC)cc3)CC2)cn1C
(21) CCOc1ccccc1NC(=O)CSc1nnc(-c2ccco2)n1Cc1ccco1
(22) O=C(O)CC/C(=N/Nc1ccc([N+](=O)[O-])cc1)C(=O)O
(23) CCOC(=O)C1(CCCc2ccccc2)CCN(C(=O)C(C)n2cncn2)CC1 (stereo unspecified)
(24) O=C(CSc1nc(-c2ccccc2)cs1)NC(=O)NCc1ccco1
compound no.	19	20	21	22	23	24
D2 PAM	-14	-4	-10	-15	-8	-7
Six1-Eya2 blk	11	-4	-13	5	-2	-12
TRPML1 agonist	2.4	-1.5	2.0	0.7	-0.7	2.3
CtBP-E1A inh	13	-4	-8	5	-6	-8
D2 ag	-1.0	2.3	-0.9	-0.8	-0.7	1.3
PINK1 modulator	-1.3%	0.8%	-1.1%	1.3%	1.8%	-5.6%[38.3 µM]

Whole records from above. Values in the order: D2 PAM | Six1-Eya2 blk | TRPML1 agonist | CtBP-E1A inh | D2 ag | PINK1 modulator
O=C(CSc1nc(-c2ccccc2)cs1)NC(=O)NCc1ccco1 is listed with -7 | -12 | 2.3 | -8 | 1.3 | -5.6%[38.3 µM]
CCOc1ccccc1NC(=O)CSc1nnc(-c2ccco2)n1Cc1ccco1 is listed with -10 | -13 | 2.0 | -8 | -0.9 | -1.1%
O=C(Nc1ccc(NS(=O)(=O)c2ccccc2)c(Cl)c1)c1ccccc1 is listed with -14 | 11 | 2.4 | 13 | -1.0 | -1.3%
COC(=O)c1cc(S(=O)(=O)N2CCN(c3ccc(OC)cc3)CC2)cn1C is listed with -4 | -4 | -1.5 | -4 | 2.3 | 0.8%

The results go on.
(25) COc1cccc(OC)c1C(=O)Nc1ccc(N2CCN(S(C)(=O)=O)CC2)cc1
(26) N=c1c2c(-c3ccccc3)c(-c3ccccc3)oc2ncn1Cc1ccco1
(27) N#Cc1c(-n2cccc2/C=N/O)sc2c1CCCC2
(28) O=C(CSc1ncccc1-c1nc2ccccc2[nH]1)NC1CC1
(29) COCOCCn1cc(CN2CCS(=O)(=O)N(Cc3ccc(-c4ccccc4)cc3)C(C(C)C)C2=O)nn1 (stereo unspecified)
(30) Cc1cc(O)c(NC(=O)c2cccc([N+](=O)[O-])c2)cc1C
compound no.	25	26	27	28	29	30
D2 PAM	1	-5	4	0	nt	2
Six1-Eya2 blk	0	-21	-25	-2	-1	12
TRPML1 agonist	-0.4	3.1	-0.3	1.4	nt	1.3
CtBP-E1A inh	3	-14	-15	4	-8	0
D2 ag	-4.0	-1.3	-3.2	-3.2	-1.6	2.0
PINK1 modulator	2.9%	-5.1%	3.9%	?	1.1%	-1.0%

Some of these compounds in order of number of heavy atoms, lowest first:
(13) CC(/C=C/c1ccccc1)=N/NC(=O)CNC(=O)c1ccccc1F
(20) COC(=O)c1cc(S(=O)(=O)N2CCN(c3ccc(OC)cc3)CC2)cn1C
(21) CCOc1ccccc1NC(=O)CSc1nnc(-c2ccco2)n1Cc1ccco1
compound no.	13	20	21
D2 PAM	-3	-4	-10
Six1-Eya2 blk	4	-4	-13
TRPML1 agonist	2.8	-1.5	2.0
CtBP-E1A inh	15	-4	-8
D2 ag	-1.0	2.3	-0.9
PINK1 modulator	7.5%	0.8%	-1.1%

(more compounds)
(31) O=c1[nH]c(C2CCN(S(=O)(=O)c3ccc4c(c3)OCCO4)CC2)nc2c1nnn2Cc1ccc(F)cc1
(32) COCCCNC(=O)CN1C(=O)c2ccccc2C1=O
(33) CCOC(=O)CNC(=O)c1ccc(C#CC2(O)CCCCC2)cc1
(34) CC(C(=O)N1CCCCC1)n1sc2ccccc2c1=O (stereo unspecified)
(35) COc1cccc(Oc2c(C)oc3c(CN4CCCCC4)c(O)ccc3c2=O)c1
(36) CSCC(=O)NCC1(N(C)Cc2ccccc2)Cc2ccccc2C1
compound no.	31	32	33	34	35	36
D2 PAM	-3	-14	-4	-3	-10	-22
Six1-Eya2 blk	-11	-2	3	8	7	0
TRPML1 agonist	3.0	-0.4	0.4	-0.4	-0.7	1.5
CtBP-E1A inh	-7	7	-1	-1	nt	-6
D2 ag	1.0	-1.4	0.5	-3.7	-4.9	-2.7
PINK1 modulator	2.7%	nt	1.9%	-0.8%	1.3%	0.4%

(37) CCCCNC(=S)NNc1c(Cl)cc(Cl)cc1Cl
(38) Cc1ccsc1C(=O)Nc1nccs1
(39) COc1ccc(-c2csc(NC(=O)c3c(C)noc3C)n2)cc1F
(40) O=C(Nc1ccccc1Oc1ccccc1)c1cnccn1
(41) O=c1ccc2ccc(Oc3ccc([N+](=O)[O-])cc3Cl)cc2o1
(42) Cn1nc(C(F)(F)F)c(C#N)c1N1CCN(c2ccccc2F)CC1
compound no.	37	38	39	40	41	42
D2 PAM	-9	-6	25	1	6	-12
Six1-Eya2 blk	4	2	-6	2	-6	8
TRPML1 agonist	1.9	-0.7	-0.2	0.4	-0.7	0.2
CtBP-E1A inh	-2	2	-2	5	2	-1
D2 ag	-4.2	-2.6	3.8	-3.0	0.5	0.9
PINK1 modulator	1.7%	1.2%	0.3%	0.1%	-0.1%	0.2%

(43) Cc1cc(C(=O)COc2cccnc2[N+](=O)[O-])c(C)n1-c1ccccc1
(44) COc1cc(C(=O)N2CCN(C(=O)c3cc(-c4ccc(Br)cc4)n[nH]3)CC2)cc(OC)c1OC
(45) CN(Cc1ccccc1)C(=O)c1ccc(NC(=O)Cc2ccc(NC(=O)C3CCCN(C(=O)C4CC4)C3)cc2)cc1 (stereo unspecified)
(46) COCCCNC(=O)C(=O)NCCCOC(C)C
(47) CN(C)c1oc(-c2ccco2)nc1S(=O)(=O)c1ccc(Br)cc1
(48) COc1ccc(CCNC(=O)CSc2nnc(CNC(=O)c3ccco3)o2)cc1OC
compound no.	43	44	45	46	47	48
D2 PAM	-3	-7	nt	-6	-11	-20
Six1-Eya2 blk	3	-9	5	11	-2	2
TRPML1 agonist	0.5	1.5	-0.5	4.8	0.9	1.7
CtBP-E1A inh	-1	nt	3	2	13	0
D2 ag	-2.5	3.9	0.4	-0.6	-1.0	-2.1
PINK1 modulator	1.1%	2.2%	0.2%	-2.1%	1.2%	-2.1%

(49) O=C(NCc1ccc(OC(F)(F)F)cc1)C1CC(c2c(Cl)cccc2Cl)=NO1 (stereo unspecified)
(50) Cc1ccccc1C(c1ccccc1Cl)N(C)C (stereo unspecified)
(51) COc1cccc(CN(C)C(=O)c2cc(COc3c(F)cccc3F)on2)c1
(52) COc1ccccc1N(CC(O)COc1ccccc1)S(=O)(=O)c1ccccc1 (stereo unspecified)
(53) COc1cc(-c2c(C#N)c(N)nc3c2CCCC3)cc(OC)c1OC
compound no.	49	50	51	52	53
D2 PAM	3	-4	0	3	0
Six1-Eya2 blk	8	2	-1	5	-5
TRPML1 agonist	2.7	0.4	-0.5	1.0	0.3
CtBP-E1A inh	6	9	10	0	-1
D2 ag	-6.4	-3.4	2.2	-1.2	-1.6
PINK1 modulator	3.1%	7.9%	-1.6%	4.6%	2.8%

Compounds 52 through 53 from above:
(52) COc1ccccc1N(CC(O)COc1ccccc1)S(=O)(=O)c1ccccc1 (stereo unspecified)
(53) COc1cc(-c2c(C#N)c(N)nc3c2CCCC3)cc(OC)c1OC
compound no.	52	53
D2 PAM	3	0
Six1-Eya2 blk	5	-5
TRPML1 agonist	1.0	0.3
CtBP-E1A inh	0	-1
D2 ag	-1.2	-1.6
PINK1 modulator	4.6%	2.8%

Compound activity from PubChem.

The order is random; any-hit rate near 1.3%.
